TRPV1 potentiator: enhances activation of the human vanilloid receptor TRPV1; Q8NER1; TRPV1-expressing cells, Fluo-8 calcium influx, capsaicin EC20 potentiation; host cell line not named in the record; control for the full effect not named in the record; potentiation, % at 8.33 µM; 320,000 tested, 0.02% active; active means potentiation above 80%; inconclusive means 30% to 80%; inactive means below 30%; also: 0% is about no effect
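Fluo-8 calcium influx in TRPV1-expressing cells, kinetic read (ex 480/em 520 nm). Compound added and read 3 min for agonist activity, followed by capsaicin at EC20 final and 2 min further read for enhancement.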
gsp antag: antagonizes gsp, the McCune-Albright syndrome mutation; 340,000 tested, 0.4% active; gsp-mutant cells, cAMP HTRF, 30 min; control for the full effect not named in the record; Potency, µM (highest dose often 76.9 µM), for the others: at the top dose activity change, negative = inhibition, most hits filed as inhibitors; active = falling curve of any shape with a large fitted effect; inconclusive = falling curve, mostly with a smaller effect; inactive = flat or rising curve; cell line not stated here;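 also: intracellular cAMP measured with PDE inhibitor Ro 20-1724 present during compound exposure; potency is read from the fitted curve at half-maximal effect; % is scaled to controls: 0 for no effect and ±100 for the full control effect; nearly all actives have a fitted effect of over 65% in size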
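Cells, 2000/well, grown 16–24 h in DMEM 10% FBS with 0.5 mg/ml G418, then compounds plus […] (300 uM addition stock), 30 min at 37C. cAMP read by HTRF (cAMP-d2 and anti-cAMP antibody-K in lysis buffer) after 30 min RT.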
D2 PAM: potentiates the human D2 dopamine receptor allosterically; DiscoveRx D2 beta-arrestin cells, luminescence, 90 min; 100% = 57 uM dopamine signal; potentiation, % (test concentration not listed); 360,000 tested, 0.23% active; active = potentiation of 50% or more; inconclusive = 30% to 50%; inactive = 30% or less;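 also: compound concentration not given in the record; tested on top of an EC20 dose of dopamine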
Target sequence (P14416 whole entry, looked up): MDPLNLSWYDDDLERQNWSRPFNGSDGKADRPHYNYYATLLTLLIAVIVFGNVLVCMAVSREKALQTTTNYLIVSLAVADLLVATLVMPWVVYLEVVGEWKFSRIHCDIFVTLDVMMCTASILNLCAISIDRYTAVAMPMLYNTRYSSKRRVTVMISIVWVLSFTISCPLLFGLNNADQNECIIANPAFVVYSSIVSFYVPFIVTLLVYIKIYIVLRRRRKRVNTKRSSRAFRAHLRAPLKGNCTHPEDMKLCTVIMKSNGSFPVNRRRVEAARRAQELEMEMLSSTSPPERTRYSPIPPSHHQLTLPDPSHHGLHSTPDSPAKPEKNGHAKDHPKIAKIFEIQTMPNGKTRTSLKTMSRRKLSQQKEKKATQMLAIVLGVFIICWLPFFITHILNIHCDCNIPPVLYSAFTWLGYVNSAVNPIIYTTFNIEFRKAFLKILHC
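PathHunter beta-arrestin assay in DiscoveRx D2 cells. Compounds were added with an EC20 of dopamine (50 nM final) for 90 min at 37 deg C. Luminescence was read 1 h after detection reagent, with 57 uM dopamine as the EC100 control.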
ClpP mod: qHTS Assay for Activators of ClpP. Potency, µM (titrated, usually from 57.5 µM), for inactives: at the top dose activity change, negative = active. purified B. subtilis ClpP, FRET peptide cleavage, 20 min. 340,000 tested, 1.9% active. AID 651965, 2013; active = well fitted falling curve with a large enough effect; inconclusive = small, poorly fitted or top-dose-only effect; inactive = no such curve, though single readings can be large or run the other way; also: potency is read from the fitted curve at half-maximal effect; the source files actives as falling curves though it sought activators and does not explain the sign; nearly all actives have a fitted effect of over 65% in size; many hits overshoot -100%
Target sequence (P80244 whole entry, looked up): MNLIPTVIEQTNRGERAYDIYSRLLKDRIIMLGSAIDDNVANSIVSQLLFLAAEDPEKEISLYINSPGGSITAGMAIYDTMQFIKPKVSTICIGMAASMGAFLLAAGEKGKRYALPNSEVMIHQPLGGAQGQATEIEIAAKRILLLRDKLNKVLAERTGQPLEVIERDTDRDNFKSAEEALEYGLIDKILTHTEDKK
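ClpP 10 microg/mL final, pH 8 Tris/KCl buffer with BSA, glycerol, Tween-20; compound pinned in; FRET-FV substrate; RT 20 min; Ex320/Em430; ΔFRET vs ADEP 5.8 microM, DMSO, no enzyme.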
gsp ag: gsp mutant agonism | 340,000 tested, 0.13% active | AID 624287 | gsp mutant cells, cAMP HTRF, 30 min; control for the full effect not named in the record | Potency, µM (highest dose often 76.9 µM), without a hit: at the top dose activation (cAMP increase), most hits filed as activators; active = well fitted activation curve with a large enough effect; inconclusive = small, poorly fitted or top-dose-only effect, or another doubt; inactive = no such curve, though single readings can be large or run the other way; cell line not stated here;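 also: phosphodiesterase inhibitor Ro 20-1724 added with compounds to block cAMP breakdown; potency is read from the fitted curve at half-maximal effect; nearly all actives have a fitted effect of over 60% in size; about a fifth of the inactives were tested at one dose only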
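Cells in DMEM/10% FBS with G418 were pretreated with compounds in DMSO plus […] (300 uM stock) for 30 min at 37C. cAMP was measured by HTRF (cAMP-d2 plus anti-cAMP antibody-K) after 30 min at room temperature.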
Sfp PPTase inh: blocks B. subtilis Sfp PPTase activity. Q9F4F7. Biochemical Sfp PPTase activity, qHTS. Potency, µM, for the others: max response, negative = inhibition, usual class: inhibitors. 310,000 tested, 3.5% active; active = well fitted inhibition curve with a large enough effect; inconclusive = small, poorly fitted or top-dose-only effect, or another doubt; inactive = no such curve, though single readings can be large or run the other way;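 also: the enzyme is Sfp with the accession as filed and its product quenches rhodamine fluorescence; potency is read from the fitted curve at half-maximal effect; 0% = enzyme reaction without inhibitor and -100% = no enzyme wells; top concentration of the series not given in the record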
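Compounds were incubated with enzyme (final 15 nM) for 15 min at room temperature before substrate addition started the reaction. Fluorescence at 525 nm excitation, 598 nm emission was recorded immediately and after 30 minutes.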
Menin MLL FP FL: displaces fluorescein MLL peptide from human menin | AID 1766 | FP activity change, % at 61.4 µM | Fluorescence polarization, fluorescein-MLL peptide displacement from menin | 290,000 tested, under 10 active; inconclusive = falling polarisation curve, or a change in total fluorescence; inactive = total fluorescence flat and polarisation flat or rising; no compound was filed as active; the % refers to the polarisation; negative = inhibition;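 also: % of control where 0% means no effect; inhibitors lower the polarisation; unlabelled MLL peptide was the positive control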
Starred values were filed as active, the others as inactive; ? = inconclusive; . = not tested or not shown; & = joins results of further samples; [ ] = another dose, or the depositor's remark.

structure	TRPV1 potentiator	gsp antag	D2 PAM	ClpP mod	gsp ag	Sfp PPTase inh	Menin MLL FP FL
CNC(=O)C1CN(C(=O)c2cccc(S(=O)(=O)N3c4ccccc4CC3C)c2)c2ccccc2O1 (stereo unspecified)	-5.1	-17.3%	2.4	0.3%	-2.1%	.	.
CC(C)[C@@H](C(=O)N1CCN(Cc2ccc3c(c2)OCO3)CC1)n1nnc2ccccc2c1=O	-4.3	-2.9%	1.5	0.7%	19.3%	13.0%	.
COC(=O)c1ccc(N/C=C/C(=O)c2ccc(OC)c(OC)c2)cc1	3.2	10.0%	-9.4	-4.6%	10.2%	12.0%	-1.7
Cc1ccc(C)c(S(=O)(=O)N2CCN(C(=O)c3cc(-c4cccs4)nn3-c3ccccc3)CC2)c1	5.0	-15.2%	5.3	?	-0.8%	.	.
CCOc1ccc(CCNC(=O)CCn2cccc2)cc1OCC	?	-2.4%	-3.5	-0.5%	0.6%	18.6%	2.2
Cc1[nH]c2ccccc2c1/C=N/NC(=O)CCC(=O)NCc1ccccc1	4.2	?	-5.8	.	-2.1%[15.4 µM]	1.6%	10.7
COc1ccc(C(=O)Nc2ccccc2N2CCCC2)cc1S(=O)(=O)N1CCOCC1	16.9	-10.0%	-22.9	?	-32.8%[inhibitor]	.	.
COc1ccc(CCNC(=O)CSc2nnnn2C)cc1OC	5.1	-0.7%	-4.8	-0.6%	-18.4%	11.1%	-1.1
Cc1cc(C(=O)N/N=C/c2cc(Br)cc(Br)c2OC(=O)c2ccccc2)n[nH]1	9.7	.	.	.	.	-10.6%	32.3[activator]
C=CCN1C(=O)C(CC(=O)Nc2ccc(OCCC)cc2)N(CCCN2CCN(Cc3ccccc3)CC2)C1=S (stereo unspecified)	3.8	2.8%	-2.6	.	14.0%[15.4 µM]	1.7%	-5.0
O=C1OC2CCC1(c1ccccc1)C2 (stereo unspecified)	-37.7	-3.6%	5.7	-1.6%	-4.4%	9.1%	1.8
Cn1c(Cn2c(=O)sc3ccccc32)nnc1SCc1ccccc1F	0.5	-1.7%	0.1	2.6%	-4.5%	16.9%	-1.9
COc1ccc(S(=O)(=O)n2c([N+](=O)[O-])cnc2C)cc1OC	?	5.5%	-26.5	0.2%	-1.8%[15.4 µM]	10.3%	-3.4
c1ccc(-c2nc(N3CCCCCC3)nc(-n3ccnc3)n2)cc1	-2.6	0.2%	-23.1	0.0%	-1.9%	2.6%	0.0
CCCC1COC(Cn2cncn2)(c2ccc(C)cc2)O1 (stereo unspecified)	-4.7	3.6%	-22.3	-2.1%	-46.2%[inhibitor]	7.3%	-1.0
Cc1cc([N+](=O)[O-])cc(/C=N/n2c(C)nc3ccccc3c2=O)c1O	1.3	-16.0%	-6.4	.	4.8%[15.4 µM]	19.2%	9.3
CC(C)(C)NC(=O)CSc1nnc(C2CC2)n1Cc1ccccc1	-12.6	1.3%	-7.5	-1.3%	-7.7%	-6.5%	-0.6
COc1cc(NC(=O)C(=O)NCCN(C)C)c(OC)cc1Cl	-0.7	5.4%	-4.5	.	-1.3%	8.8%	0.5
CC(=O)c1c(C)n(-c2ccc(Cl)cc2)c2ccc(O)cc12	-10.1	6.6%	-0.2	.	37.5%	0.6%	-0.3
CCn1cc(C(=O)NCc2ccc3c(c2)OCO3)c(=O)c2cc(F)c(N3CCN(C)CC3)cc21	-3.7	-3.8%	-8.2	-21.5%	-6.9%	12.5%	-0.1
CC(C)n1c(SC2C(=O)CC(C)(C)CC2=O)nc2c1c(=O)n(C)c(=O)n2C	7.0	2.4%	-9.4	-2.4%	?	-16.7%	4.7
COc1ccc(N(CC(=O)N2CCN(c3ccc(F)cc3)CC2)S(=O)(=O)c2c(C)noc2C)cc1	21.2	-0.1%	-1.1	-0.7%&-1.0%	11.3%	11.1%	.
O=C(CSCc1ccc(Cl)cc1)N1CCN(Cc2ccc3c(c2)OCO3)CC1	18.4	-20.1%	-10.6	1.2%	-31.9%[inhibitor]	-8.0%	0.6
CCn1nnc(-c2ccccc2NC(=O)c2cccc(-n3cnnn3)c2)n1	-7.6	13.5%	4.3	?	-25.9%	8.6%	3.9
O=C(Cc1ccccn1)c1ccc(O)cc1O	-6.9	-7.2%	-2.9	-3.7%	0.8%	-5.0%	3.5
CCOC(=O)CCNC(C(=O)OCC)c1ccccc1 (stereo unspecified)	4.2	6.0%	3.9	-1.1%	0.0%	-7.7%	-0.9
Cc1ccn(CC(=O)N2N=C(C(F)F)CC2(O)C(F)F)n1 (stereo unspecified)	0.9	9.7%	-9.3	2.8%	-1.1%	7.6%	-0.6
Cc1cc(NC(=O)COC(=O)C2CCC(=O)N2)c([N+](=O)[O-])cc1C (stereo unspecified)	?	-18.1%	-4.6	2.3%	-20.2%	-13.8%	0.3
COc1ccc(NC(=O)Cc2ccc(C)cc2)c([N+](=O)[O-])c1	-3.0	0.4%	3.7	?	-1.0%	1.9%	7.2
Cc1ccc(S(=O)(=O)N(CC(=O)N2CCCCCC2)c2ccccc2F)cc1	-7.9	-1.3%	-11.5	-0.1%	?	10.8%	.
CC(C)CCn1nnnc1C(c1ccccc1)N1CCN(C)CC1 (stereo unspecified)	6.9	6.3%	-9.2	0.4%	3.1%	5.0%	0.4
O=C1CSC(c2cccc([N+](=O)[O-])c2)N1c1c(F)cccc1F (stereo unspecified)	-0.1	-0.3%	-2.7	-8.9%	2.7%[15.4 µM]	-12.2%	-2.7
CCN(CC)S(=O)(=O)c1ccc(Cl)c(C(=O)NCCN2CCOCC2)c1	2.8	4.2%	-1.8	0.6%	-20.9%	9.8%	1.6
O=C(c1ccccc1[N+](=O)[O-])N1N=C(c2ccccc2)CC1(O)C(F)(F)F (stereo unspecified)	0.1	-9.6%	-4.1	-0.8%	-0.8%	5.2%	-8.6
CC1CCN(CCCNC(=O)c2ccc3c(=O)n(CCc4ccccc4)c(=O)[nH]c3c2)CC1	7.6	13.4%	-21.1	6.9%	18.0%	-11.8%	-4.8
Cc1cc(C)n2nc(C)c(-c3ccccc3)c2n1	.	-0.5%	-1.7	1.2%	-13.6%	.	.
C=CCN(C(=O)C1=NN(C2CCS(=O)(=O)C2)C(=O)CC1)c1nc(-c2ccc([N+](=O)[O-])cc2)cs1 (stereo unspecified)	1.4	-15.3%	-2.4	.	-1.0%	-15.9%	-2.0
Cc1ccc(C(=O)NCC(=O)N/N=C/c2cccs2)cc1C	6.4	2.0%	0.4	-1.4%	?	5.8%	0.5
N#CC(C#N)=C1C=CC=CN1/C(=C\c1ccco1)C(=O)c1ccc(Cl)cc1	0.5	16.0%	-49.7	-1.7%	11.2%	14.1µM*	6.9
CCOC(=O)c1c(-c2ccc(OC)cc2)cn2ccccc12	-14.3	7.4%	-13.2	3.8%	-39.7%[inhibitor]	-20.8%	1.4
CCCCNS(=O)(=O)c1ccc2nc(-c3cccnc3)cc(C(=O)NC3CCCC3)c2c1	3.1	-9.5%	-3.6	.	5.1%[15.4 µM]	23.6%	3.3
O=c1c2ccccc2nnn1CSc1nnc(-c2cccs2)n1Cc1ccccc1	1.5	-34.2%	-9.1	-1.3%	?	10.3%	0.9
CCOC(=O)C1=C(c2ccccc2)NC(=S)NC1c1ccc(Cl)cc1 (stereo unspecified)	-1.1	-11.6%	-5.0	.	-0.2%[15.4 µM]	10.3%	3.0
C(=C1c2ccccc2-c2ccccc21)c1ccccn1	.	7.9%	-10.0	1.6%	-6.1%[15.4 µM]	.	.
C=CCNc1nc(Nc2ccc([N+](=O)[O-])cc2)nc(OCC)n1	-1.6	4.9%	-10.7	-0.8%	-31.2%[inhibitor]	-19.8%	-0.4
COc1ccc(C(=O)N=C2SC3CS(=O)(=O)CC3N2Cc2ccc(OC)c(OC)c2)cc1 (stereo unspecified)	-3.5	-21.1%	-11.6	-0.9%	-23.6%	-2.5%	1.6
O=C(Nc1nc2ccccc2[nH]1)C1CCC1	2.7	-0.1%	2.1	.	15.5%[15.4 µM]	5.4%	-0.6
CCOC(CNc1c([N+](=O)[O-])c(=O)n(C)c(=O)n1C)OCC	3.8	3.7%	1.0	-15.6%	-26.4%	5.4%	4.7
COc1cccc(/C=C2\SC(=S)N(CCCC(=O)Nc3cc(C)on3)C2=O)c1	4.8	15.1%	-1.3	-0.1%	-31.6%[inhibitor]	2.8%	?
Cn1c(C(=O)NCCCN2CCN(c3ccc(F)cc3)CC2)cc2c(=O)n(C)c3ccccc3c21	.	6.4%	-12.7	-13.4%	0.9%	.	.
Cc1ccc(C)c(OCCC(=O)OCC(=O)Nc2ccc(Cl)cn2)c1	22.4	6.7%	-0.9	.	8.3%[15.4 µM]	.	.
O=C(NNS(=O)(=O)c1ccc(F)cc1)c1cc(Cl)ccc1O	-11.3	?	7.4	-13.1%	-3.0%	13.9%	1.9
Cc1ccc(S(=O)(=O)NC(=O)c2cc(C)n(-c3ccc(N(C)C)cc3)c2C)cc1	1.8	?	0.4	-0.6%	-1.2%	-18.6%	5.3
O=C(O)C1=C[C@H](c2coc3ccccc3c2=O)C[C@H](OCCCCO)O1	0.4	11.7%	-5.5	7.1%	.	19.4%	0.5
CCn1c(COc2cccc(OC)c2)nnc1SCC(=O)NC1CCCC1	17.4	-4.2%	1.5	.	-19.5%	15.3%	-1.5
COC(=O)Cn1c2nc3ccccc3nc2c2cccc(C)c21	5.2	-7.9%	-3.1	.	42.3%	2.2%	-0.8
COc1ccc(CCNC(=O)CCc2cn(C)c3ccccc23)c(OC)c1OC	-1.4	-10.1%	-7.8	.	4.4%	4.6%	4.0

3 structures already listed, sorted by SMILES length, lowest first:
structure	TRPV1 potentiator	gsp antag	D2 PAM	ClpP mod	gsp ag	Sfp PPTase inh	Menin MLL FP FL
Cc1ccc(C)c(OCCC(=O)OCC(=O)Nc2ccc(Cl)cn2)c1	22.4	6.7%	-0.9	.	8.3%[15.4 µM]	.	.
COc1ccc(CCNC(=O)CCc2cn(C)c3ccccc23)c(OC)c1OC	-1.4	-10.1%	-7.8	.	4.4%	4.6%	4.0
Cc1ccc(S(=O)(=O)NC(=O)c2cc(C)n(-c3ccc(N(C)C)cc3)c2C)cc1	1.8	?	0.4	-0.6%	-1.2%	-18.6%	5.3

Screening results as filed in PubChem.

This is a random part of the collection. About 5.1% of those tested had a hit in this group.
